# Source: PubChem (several laboratories)
# PKD1 inh: PKD1 (human) kinase inhibition; AID 797; PKD1 kinase fluorescence polarization assay; Q15139; 200,000 compounds, 0.056% hits; inhibition, %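 (about 10 µM by stock and volumes)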;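 active means inhibition of 50% or more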;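 further: controls were vehicle for no effect and a reference inhibitor for full effect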
# Insulin prom inh: TRM-6 insulin promoter activity inhibition. inhibition, % at 2 µM. 130,000 compounds, 0.9% hits. TRM-6 cells (human fetal islet line), insulin promoter-eGFP reporter, imaging; reporter expression induced with tamoxifen;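 active means inhibition above the mean plus 3 SD, with well images judged a real hit on visual review, cut at about 60% in these data, passing the limit was not always enough; inconclusive means inhibition over the cutoff but images rejected on review; inactive means inhibition not above the cutoff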
# HSV replic up: HSV replication enhancement; 220,000 compounds, 0.005% hits; AID 1956; maximum fold increase; HSV replication augmentation in cells, fold increase;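 active means peak rise of 1.5-fold or more in the series; inconclusive means self-fluorescent or not available for retest; tested in PC3 cells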;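 further: first round at 10 µM; read as green reporter fluorescence; hits show the peak of a series up to 25 µM; 1 = signal of infected wells without compound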
# RGS16-Gao HTS: modulates binding between human RGS16 and Galphao. O15492+P09471. bead-based flow cytometry RGS16-Galphao binding, fluorescence; actives lie on both sides. binding response (% of control), % at 10 µM. 220,000 compounds, 0.38% hits;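 active means below 25% or above 175%, edge rows of some plates excepted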;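 further: Galphao activated by GDP with aluminum fluoride before binding; 100% = wells without compound and 0% = beads without RGS; some results beyond the cut were filed as inactive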
# Target sequence (O15492 whole entry, looked up): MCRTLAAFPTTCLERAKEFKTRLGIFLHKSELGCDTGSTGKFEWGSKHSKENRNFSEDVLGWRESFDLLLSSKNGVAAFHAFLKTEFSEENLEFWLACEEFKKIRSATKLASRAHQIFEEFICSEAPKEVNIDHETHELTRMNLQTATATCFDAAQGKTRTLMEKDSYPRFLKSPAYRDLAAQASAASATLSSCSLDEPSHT
# Target sequence (P09471 whole entry, looked up): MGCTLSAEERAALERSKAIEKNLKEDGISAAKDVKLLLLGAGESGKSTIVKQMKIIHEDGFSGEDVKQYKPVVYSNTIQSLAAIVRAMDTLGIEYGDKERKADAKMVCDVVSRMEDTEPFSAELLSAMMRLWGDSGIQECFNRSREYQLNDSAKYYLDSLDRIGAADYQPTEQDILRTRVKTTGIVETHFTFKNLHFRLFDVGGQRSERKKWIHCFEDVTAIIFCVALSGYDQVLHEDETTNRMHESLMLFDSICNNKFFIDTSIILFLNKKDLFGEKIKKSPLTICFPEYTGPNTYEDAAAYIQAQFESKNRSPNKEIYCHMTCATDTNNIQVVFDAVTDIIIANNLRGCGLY
# GALR2 agonist: GALR2 (human) receptor agonism | O43603 | GALR2-expressing cells, agonist activation read-out | activation, %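 (tested at 5 µM)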 | 140,000 compounds, 0.48% hits;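 active means above mean plus 3 SD of all compounds, about 5% in these data, not always enough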;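 further: 0% = vehicle buffer wells and 100% = reference agonist at full effect; tested in CHO reporter cells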
# Target sequence (O43603 whole entry, looked up): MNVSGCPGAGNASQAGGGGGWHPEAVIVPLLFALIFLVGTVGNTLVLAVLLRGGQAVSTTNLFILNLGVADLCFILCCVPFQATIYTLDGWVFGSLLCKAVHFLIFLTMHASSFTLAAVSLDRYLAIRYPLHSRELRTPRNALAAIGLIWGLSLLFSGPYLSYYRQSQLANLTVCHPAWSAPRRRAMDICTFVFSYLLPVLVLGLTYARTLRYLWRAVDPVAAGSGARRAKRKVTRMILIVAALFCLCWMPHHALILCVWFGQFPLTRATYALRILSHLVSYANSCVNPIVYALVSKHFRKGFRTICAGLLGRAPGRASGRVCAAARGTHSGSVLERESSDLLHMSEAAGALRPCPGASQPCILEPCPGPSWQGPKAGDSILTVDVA
# Insulin prom inh cell count: recorded beside Insulin prom inh, whose call it bears; normalized cell count, %; measured here: cell count, toxicity; reference of the scale not given here;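 cells exposed to compound for 48 h; stained nuclei by imaging scaled within each plate; lower means fewer cells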
# HSV replic up primary fold: second read-out of HSV replic up, no call of its own (marks repeat the call); fold increase; compound at 10 µM; measured here: primary screen fold increase 10 uM; tested in PC3 cells;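 GFP signal in the first replicate; 1 = infected wells without compound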
# Starred values were filed as active, the others as inactive; i = inactive; ? = inconclusive; / = no result given. The order is random; about 1.1% have a hit in one of these screens.
Molecule,PKD1 inh,Insulin prom inh,Insulin prom inh cell count,HSV replic up,HSV replic up primary fold,RGS16-Gao HTS,GALR2 agonist
COc1ccc(Cl)cc1NC(=O)CCNC(=O)OCc1ccccc1,-2,/,/,i,0.96,55,/
CCOC(=O)C1C(=O)CC(C)(O)C(C(=O)OCC)C1c1ccc(OCC)cc1 (stereo unspecified),-5,-50,53,i,1,101,0.3
NC(=O)Cn1nnc(-c2ccc(C(F)(F)F)cc2)n1,-2,51,86,i,1.1,103,-0.7
CCOC(=O)C(NC(=O)NCc1ccc(F)cc1)(OCC)C(F)(F)F (stereo unspecified),-6,0,118,i,1.1,102,0.2
NNC(=O)CNC(c1ccccc1)c1cc(Br)ccc1NC(=O)c1ccccc1Br (stereo unspecified),-18,-30,62,i,0.85,108,-1.5
Cc1ccc(-c2cc(C(F)F)nc(NCC3CCCO3)n2)cc1 (stereo unspecified),-5,-16,143,i,0.94,103,4.5
CCN1CCN(S(=O)(=O)c2ccc(Br)s2)CC1,-4,/,/,i,1,99,-1.8
COc1ccc2nc(-c3ccc(N)cc3)[nH]c2c1,-6,-247,91,i,0.9,100,0.6
Cc1ccc(N2C(=O)CC(Cc3cccc(C)c3)C2=O)cc1 (stereo unspecified),1,/,/,i,0.95,102,/
O=C(Nc1ccccc1NC(=O)c1c(F)c(F)c(F)c(F)c1F)c1c(F)c(F)c(F)c(F)c1F,-5,-3,80,i,0.87,94,-0.8
O=C(O)c1ccccc1SC1CC(=O)N(c2cccc3ccccc23)C1=O (stereo unspecified),/,/,/,i,1,104,/
C#CCOCCOCCOCCNc1nc(N2CCN(C(=O)[C@H]([C@@H](C)CC)n3cc([C@@H](N)Cc4ccc(O)cc4)nn3)CC2)nc(N2CCN(C(=O)[C@H](Cc3ccc(O)cc3)n3cc([C@@H](N)CC(C)C)nn3)CC2)n1,8,/,/,i,0.94,118,/
Cc1ccc2c(c1)c(C)c(C)n2CC(O)Cn1nnc2ccccc21 (stereo unspecified),-11,-35,75,i,0.97,107,-0.9
Cc1cc(S(=O)(=O)NCC(C)C)ccc1OCC(=O)NCc1ccccn1,2,-97,106,i,0.82,105,-1.1
CCOc1cc(C(=O)NC(C)Cc2cccs2)cc(OCC)c1OCC (stereo unspecified),-3,/,/,i,1,99,/
C=C(C)C1CC=C(C)/C(=N/NC(=O)COc2ccccc2C)C1 (stereo unspecified),-7,-68,122,i,0.95,103,0.9

# 3 of the entries above in order of the GALR2 agonist value, descending.
smiles,PKD1 inh,HSV replic up,HSV replic up primary fold,RGS16-Gao HTS,GALR2 agonist
C=C(C)C1CC=C(C)/C(=N/NC(=O)COc2ccccc2C)C1 (stereo unspecified),-7,i,0.95,103,0.9
O=C(Nc1ccccc1NC(=O)c1c(F)c(F)c(F)c(F)c1F)c1c(F)c(F)c(F)c(F)c1F,-5,i,0.87,94,-0.8
Cc1cc(S(=O)(=O)NCC(C)C)ccc1OCC(=O)NCc1ccccn1,2,i,0.82,105,-1.1

# The list goes on:
Molecule,PKD1 inh,Insulin prom inh,Insulin prom inh cell count,HSV replic up,HSV replic up primary fold,RGS16-Gao HTS,GALR2 agonist
O=C(COc1ccccc1)N1CCN(C(=O)c2ccco2)CC1,-7,0,143,i,0.91,98,-1.9
Cc1ccc(S(=O)(=O)NCCC(c2ccccc2)c2ccccc2)cc1C(=O)O,-1,/,/,i,1.1,103,/
Cc1noc(C)c1S(=O)(=O)NC1CCCc2ccccc21 (stereo unspecified),-10,/,/,i,1.1,89,-2.5
Cc1ccc(NC(=O)CC(O)(C(F)(F)F)C(F)(F)F)cc1,1,77*,128*,i,0.92,104,-0.7
c1ccc(-c2cnc(CSc3ncnc4sccc34)o2)cc1,-1,6,58,i,1.1,100,-2.0
COc1ccc(NC(=O)CN2CCN(CC(=O)Nc3ccccc3Cl)CC2)cc1Cl,-15,-57,72,i,0.91,99,-3.1
O=C(NCc1ccccn1)c1cc(Br)ccc1Cl,-3,/,/,i,0.86,99,/
CSc1ccccc1N=Cc1nc(-c2ccccc2)oc1O,-4,0,85,i,0.97,94,-0.6
COc1cc(-c2cc(=O)c3c(O)cc(O)cc3o2)ccc1O,-5,/,/,?,/,92,/
COc1ccc(C2CC(c3ccccc3)=NN2C(=O)COC(=O)c2cccc(S(=O)(=O)N3CCOCC3)c2)cc1 (stereo unspecified),-2,29,140,i,1,103,-2.8
C=CCNC(=S)NC(=O)c1csc([N+](=O)[O-])c1,/,/,/,i,1.1,98,/
Cc1cc2nc(SCC(=O)Nc3nonc3C)c3c(c2cc1C)CCCC3,-13,/,/,i,0.79,94,-1.7
CCOC(=O)/C(C#N)=C(/C)c1ccc(OC)cc1,-3,23,88,i,0.92,102,-1.5
O=[N+]([O-])c1ccc(C(=S)N2CCCC2)cc1,0,/,/,i,1,101,/
OCCNc1nc2ccccc2n1CCN1CCCCC1,-6,6,133,i,1,46,-2.4
CCCCCCCC(=O)NNC(=O)c1ccc(F)cc1,-5,35,117,i,1.1,56,-2.0
CC12CCC(C(=O)NCc3ccc(F)cc3)(OC1=O)C2(C)C (stereo unspecified),3,/,/,i,0.77,96,/
COc1ccc(-c2nnc(SCC(=O)Nc3ccccc3OC)o2)cc1,7,-5,51,i,1,109,-0.8
Cn1cc(S(=O)(=O)c2ccccc2)n(C)c1=O,2,49,94,i,1,103,/
CC1=C(C(N)=O)C(c2sccc2C)n2nnnc2N1 (stereo unspecified),-4,21,51,i,0.97,105,-0.9
CC1(C)CCCN(C(=O)N2c3ccccc3Sc3ccccc32)C1,7,-53,88,i,1,100,-1.5
CCN(CC)c1ccc(/C=N\N2CCN(Cc3ccc(C)cc3)CC2)cc1,0,/,/,i,0.95,109,/
CC(C)CNC(=O)C1CCN(c2ccc(S(=O)(=O)N3CCOCC3)cc2)CC1,0,/,/,i,1,99,-0.3
COc1cc2c(cc1OC)C(COc1ccccc1OC)N(C(=O)C(C)C)CC2 (stereo unspecified),3,-58,130,i,0.97,104,/
COc1ccc([N+](=O)[O-])cc1NCc1cccnc1,-6,/,/,i,0.92,97,/
CC(=O)N1CCN(c2ccc(NC(=O)c3ccc4c(c3)OCO4)cc2)CC1,7,/,/,i,0.83,103,-1.7
COc1ccccc1/C=C/C(=O)NC(=S)NC(C)C,-11,27,95,i,0.89,97,-1.4
CCOC(=O)C1=C(C)N(C)C(=O)NC1c1cc2c(cc1Br)OCO2 (stereo unspecified),1,-50,94,i,0.97,105,-1.6
COc1cc(C2C(C#N)=C(N)Oc3cc(O)ccc32)cc(OC)c1OC (stereo unspecified),-3,-47,22,i,0.8,99,-1.3
Cc1ccccc1CC1(CO)CCCN(Cc2ccn[nH]2)C1 (stereo unspecified),-4,14,92,i,0.87,108,/
Cc1cccc(Cc2cnc(N3C(=N)SC(c4ccccc4)C3=O)s2)c1 (stereo unspecified),-4,18,83,i,0.82,108,-1.6
O=c1[nH]cnc2sc3c(c12)CCN(Cc1ccccc1)C3,2,53,135,i,0.89,96,-0.1
O=C(OC(C(=O)O)C(OC(=O)c1ccccc1)C(=O)NCc1ccccc1)c1ccccc1 (stereo unspecified),26,29,89,i,0.85,96,-2.2
O=C(OCC(=O)N1CCOCC1)c1ccc(Cl)nc1,-15,11,115,i,1,97,-1.5
Cc1cc(NC(=O)CSc2nnnn2C)n(-c2ccccc2)n1,0,-39,113,i,1,102,-2.0
CCOc1ncccc1C(=O)OCC(=O)Nc1ccc2c(c1)OCO2,-7,/,/,i,1.1,101,/
CCn1c(Cc2ccccc2)nnc1SCC(=O)Nc1nc(C)cs1,8,10,148,i,1,/,-2.1
O=C(c1ccc2c(c1)OCCO2)N(c1ccccn1)C1CCCCC1,0,13,102,i,1.1,56,-2.9
Cc1nc(NC(=O)c2ccccc2)sc1-c1csc(Nc2cccc(Cl)c2)n1,-8,16,174,i,0.89,99,-3.0
CCOc1cc(C)nc(Oc2ccc(=O)[nH]n2)n1,-5,9,87,i,0.8,130,-2.9
CCOC(=O)c1sc(NC(=O)CSc2nnc(-c3ccco3)n2CC)c(C(=O)OCC)c1C,1,-31,123,i,1.2,93,-2.0
CS(=O)(=O)c1ncc(Cl)c(C(=O)Nc2ccc3ccccc3c2)n1,15,-281,5,i,0.53,90,/
CC(=O)NC1CCCN(O)C(=O)/C=C(\C)CCOC(=O)C(NC(C)=O)CCCN(O)C(=O)/C=C(\C)CCOC(=O)C(NC(C)=O)CCCN(O)C(=O)/C=C(\C)CCOC1=O (stereo unspecified),5,/,/,i,0.91,92,/
O=C(NC1CCCCC1)C(c1ccc(F)cc1)N(CCN1CCOCC1)C(=O)c1ccc(-c2ccccc2)[nH]1 (stereo unspecified),0,-41,112,i,0.92,99,/
N#C/C(=N\Nc1ccccc1)C(=N)N1CCCCC1,2,-58,117,i,1.1,95,-2.4
CCN(C(=O)Cn1c(=O)n(Cc2ccccc2)c(=O)c2ccccc21)c1cccc(C)c1,2,-7,99,i,1.2,100,0.4
COc1ccc(-c2noc(C3CCCN(S(=O)(=O)c4cccc(Cl)c4C)C3)n2)cc1OC (stereo unspecified),7,/,/,i,0.97,101,-1.9
CCCCC(=O)NC(=S)Nc1cc(C(=O)O)ccc1Cl,-9,/,/,i,0.92,97,-2.0
Cc1ccc(CC(=O)N(Cc2ccccc2)c2ccccn2)cc1,4,/,/,i,1,98,/
CCN1CCN(CCCNC(=O)c2ccc(/C=C3/Sc4ccccc4N(Cc4ccccc4F)C3=O)cc2)CC1,-7,6,126,i,0.68,96,/
CCOC(=O)c1ccc(NC(=O)c2cc3ccccc3o2)cc1,3,63*,130*,i,1,100,-0.2
Cc1ccc2c(c1)c(=O)c1c3n2CCN(C(=O)CCl)C3CC1 (stereo unspecified),-7,/,/,/,/,77,-0.3
Cc1cc(C)nc(SCc2nnc(SCC(=O)Nc3nc(-c4ccccc4)cs3)n2C)n1,-3,-61,111,i,0.99,110,-1.3
O=C(CN1N=C(c2ccccc2)CCC1=O)NCc1cccs1,3,-36,64,i,1.1,74,/
O=C1OCCC/C1=C\c1ccc2c(c1)OCO2,/,/,/,i,0.99,104,/
COc1ccc(CC(=O)NCc2ccc3c(c2)cc(C)n3C)cc1,-7,-12,46,i,1.1,112,/

# Remaining list, next part
Molecule,PKD1 inh,Insulin prom inh,Insulin prom inh cell count,HSV replic up,HSV replic up primary fold,RGS16-Gao HTS,GALR2 agonist
CCOc1ccc(-c2noc(CCC(=O)NC)n2)cc1OCC,0,-7,93,i,0.97,98,-1.6
Cc1cnc(NC(=O)c2cc3ccccc3o2)s1,-5,/,/,i,0.9,104,/
CCC(=O)Nc1ccc(-c2nnc(SCc3ccc(C(=O)Nc4nccs4)cc3)n2CC)cc1,-10,/,/,i,0.99,101,0.1
O=C(Nc1ccc(-c2nc3ccccc3o2)cc1)c1ccc2c(c1)OCO2,-4,34,116,i,1,104,1.0
O=CN1CC(=O)N(c2ccccc2)c2c([nH]c3ccccc23)C1,-13,-69,88,i,0.75,229,-0.5
CN(C)CCNCc1ccc(OC2CCCC2)cc1,-2,-17,141,i,0.86,100,-1.5
COc1ccc(-c2nc3ccccc3s2)cc1O,-4,86*,48*,i,0.81,113,-2.0
CCOC(=O)C1=C(C)N(C2CCCCC2)C(=O)C1,0,/,/,i,0.95,107,-1.7

# Reprinted from the part before: 4 compounds, followed by the next part.
Molecule,PKD1 inh,Insulin prom inh,Insulin prom inh cell count,HSV replic up,HSV replic up primary fold,RGS16-Gao HTS,GALR2 agonist
O=CN1CC(=O)N(c2ccccc2)c2c([nH]c3ccccc23)C1,-13,-69,88,i,0.75,229,-0.5
CN(C)CCNCc1ccc(OC2CCCC2)cc1,-2,-17,141,i,0.86,100,-1.5
COc1ccc(-c2nc3ccccc3s2)cc1O,-4,86*,48*,i,0.81,113,-2.0
CCOC(=O)C1=C(C)N(C2CCCCC2)C(=O)C1,0,/,/,i,0.95,107,-1.7
Cc1ccc(C(=O)N2CC(C(=O)O)C2)cc1,-7,-60,112,i,0.99,100,/
COC(=O)c1sccc1NC(=O)COc1ccc(C)cc1,4,/,/,i,0.92,102,/
CC(=O)C1=C(O)C(=O)OC1c1ccc(C)cc1 (stereo unspecified),-1,-23,122,i,1.1,102,/
Oc1ccc2ccccc2c1C=NC12CN3CCN(CN(C3)C1)C2,4,33,94,i,0.96,90,-0.1
